From PubChem
HSV replic up = enhancers of HSV replication in host cells, fold increase, host cell viability; HSV replication augmentation in cells; maximum fold increase; hit rate 0.005% among 220,000; AID 1956, 2009;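 active means peak rise of 1.5-fold or more in the series; tested in PC3 cells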;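 further: first round at 10 µM; read as green reporter fluorescence; hits show the peak of a series up to 25 µM; 1 = signal of infected wells without compound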
GALR2 agonist = GALR2 receptor agonists, primary screen, cell-based; activation, %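 (tested at 5 µM)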; hit rate 0.48% among 140,000; Galanin receptor type 2 (Homo sapiens), O43603; AID 803, 2007; GALR2-expressing cells, agonist activation read-out;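 active means above mean plus 3 SD of all compounds, about 5% in these data, not always enough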;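 further: 0% = vehicle buffer wells and 100% = reference agonist at full effect; tested in CHO reporter cells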
Target sequence (O43603 whole entry, looked up): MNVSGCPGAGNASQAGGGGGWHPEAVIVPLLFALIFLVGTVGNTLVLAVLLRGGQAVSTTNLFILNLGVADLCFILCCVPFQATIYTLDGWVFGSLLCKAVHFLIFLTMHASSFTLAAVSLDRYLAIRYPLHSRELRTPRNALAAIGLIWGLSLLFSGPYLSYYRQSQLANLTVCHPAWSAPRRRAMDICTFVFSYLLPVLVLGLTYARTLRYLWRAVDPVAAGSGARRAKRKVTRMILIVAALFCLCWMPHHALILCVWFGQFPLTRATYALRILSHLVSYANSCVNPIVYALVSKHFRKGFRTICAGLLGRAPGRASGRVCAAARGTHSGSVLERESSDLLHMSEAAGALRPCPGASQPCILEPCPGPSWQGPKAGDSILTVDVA
PKD1 inh = inhibitors of human PKD1 kinase, biochemical, fluorescence polarization; Serine/threonine-protein kinase D1 (Homo sapiens), Q15139; PKD1 kinase fluorescence polarization assay; inhibition, %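 (about 10 µM by stock and volumes)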; hit rate 0.056% among 200,000;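 active means inhibition of 50% or more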;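 further: controls were vehicle for no effect and a reference inhibitor for full effect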
Insulin prom inh = inhibitors of insulin promoter-driven GFP, primary screen, imaging, TRM-6 cells (human fetal islet line), eGFP reporter, cell count | reporter expression induced with tamoxifen | inhibition, % at 2 µM | hit rate 0.9% among 130,000 | AID 1273, 2008;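 active means inhibition above the mean plus 3 SD, with well images judged a real hit on visual review, cut at about 60% in these data, passing the limit was not always enough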
RGS16-Gao = modulators of RGS16 binding to Galphao, primary screen, biochemical, human proteins, multiplexed bead flow cytometry; binding response (% of control), % at 10 µM; AID 1441, 2008; Regulator of G-protein signaling 16 (Homo sapiens) + Guanine nucleotide-binding protein …; hit rate 0.38% among 220,000; bead-based flow cytometry RGS16-Galphao binding, fluorescence; actives lie on both sides;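 active means below 25% or above 175%, edge rows of some plates excepted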;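 further: Galphao activated by GDP with aluminum fluoride before binding; 100% = wells without compound and 0% = beads without RGS; some results beyond the cut were filed as inactive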
Target sequence (O15492 whole entry, looked up): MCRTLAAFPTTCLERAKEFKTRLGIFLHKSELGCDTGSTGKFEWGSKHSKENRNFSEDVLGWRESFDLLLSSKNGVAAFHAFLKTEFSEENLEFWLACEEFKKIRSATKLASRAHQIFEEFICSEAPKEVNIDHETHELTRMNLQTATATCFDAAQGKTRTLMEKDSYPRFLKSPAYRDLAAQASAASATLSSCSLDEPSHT
Target sequence (P09471 whole entry, looked up): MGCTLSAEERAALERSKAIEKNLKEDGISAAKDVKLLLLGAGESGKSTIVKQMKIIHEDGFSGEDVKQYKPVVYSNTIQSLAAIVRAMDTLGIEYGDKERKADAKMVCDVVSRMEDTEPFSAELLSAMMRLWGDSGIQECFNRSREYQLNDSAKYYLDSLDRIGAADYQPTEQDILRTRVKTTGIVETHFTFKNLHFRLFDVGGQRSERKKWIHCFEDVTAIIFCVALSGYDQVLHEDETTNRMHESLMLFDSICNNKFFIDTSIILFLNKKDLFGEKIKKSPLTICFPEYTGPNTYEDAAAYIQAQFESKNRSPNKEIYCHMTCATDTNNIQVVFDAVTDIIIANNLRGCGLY
Insulin prom inh cell count = further read-out of Insulin prom inh, marked with its call; normalized cell count, %; measured here: cell count, toxicity; reference of the scale not given here;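 cells exposed to compound for 48 h; stained nuclei by imaging scaled within each plate; lower means fewer cells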
HSV replic up primary fold = second read-out of HSV replic up, no call of its own (marks repeat the call); fold increase; compound at 10 µM; measured here: primary screen fold increase 10 uM; tested in PC3 cells;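 GFP signal in the first replicate; 1 = infected wells without compound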
Starred values were filed as active, the others as inactive; i = inactive; · = not tested or not shown.

SMILES	HSV replic up	HSV replic up primary fold	GALR2 agonist	PKD1 inh	Insulin prom inh	Insulin prom inh cell count	RGS16-Gao
NS(=O)(=O)c1ccc(CCNC(=O)NC2CCCCC2)cc1	i	1.02	·	·	·	·	97.3
Nc1nonc1C(=O)N/N=C/c1cc(Br)ccc1O	i	0.91	·	-1.9	13.3	69.1	84.5
Cc1nc2ccccc2n1CCC(=O)O	i	1	-2.7	-10.9	-37.5	109.9	102.9
CC(=O)O/N=C(\N)Cc1ccc(-c2csnn2)cc1	i	0.97	·	·	·	·	100.4
CNC(=O)CSc1nc2[nH]ncc2c(=O)[nH]1	i	0.96	·	-4.2	-66.7	139.5	122.8
CC(=O)c1cc(CC=C(C)C)c(O)c(CC=C(C)C)c1O	·	·	-1.5	-1.1	·	·	92.9
Cc1ccc(NC(=O)C2CCCN2S(=O)(=O)c2ccc3c(c2)n(C)c(=O)c(=O)n3C)c(C)c1 (centres undefined)	i	1	·	·	·	·	100.7
Cn1nc(C(F)(F)F)c(-c2cccc(C(F)(F)F)c2)c1NC(=O)c1ccco1	i	1.01	·	·	·	·	105.2
CS(=O)(=O)NN1C(=O)c2ccccc2NC1c1ccccc1 (centres undefined)	i	0.99	·	-3.0	·	·	99.6
CCC(C)NS(=O)(=O)c1ccc(OCC(=O)NCc2cccnc2)cc1 (centres undefined)	i	0.82	-2.7	5.0	5.7	102.4	64.4
CC(C)(O)C#Cc1ccc(C(=O)N2CCN(c3ccc(Cl)cc3)CC2)cc1	·	·	·	-4.5	38.5	95.8	102.3
OC1(c2ccc3c(c2)OCO3)CCN(Cc2ccccn2)CC1	i	1.44	-1.0	6.2	·	·	105.3
CCOC(=O)C1CCN(S(=O)(=O)c2ccc(-c3ccccn3)s2)CC1	i	1.15	·	·	·	·	93.0
CN=C1NN=C(c2cc(C)n(-c3ccc(Cl)cc3)c2C)CS1	i	0.98	·	-3.4	-8.3	132.4	108.8
O=C(O)c1cc(S(=O)(=O)N2CCOCC2)c(Sc2ccccn2)cc1Sc1ccccn1	i	1.08	-1.2	0.1	·	·	81.3
O=C(COc1ncnc2sccc12)Nc1ccc(F)cc1F	i	1.1	·	-7.2	54.5	109.8	100.0
CC1CCN(c2nc3c(c(=O)[nH]c(=O)n3C)n2Cc2ccccc2)CC1	i	1.02	-6.5	-1.6	·	·	107.4
CCCCNC(=O)c1ccc(SCC(=O)N(CC)CC)c([N+](=O)[O-])c1	i	0.6	·	-1.3	·	·	103.0
Cc1cc(C)c2nc(SCC(=O)Nc3ccccc3N3CCOCC3)c(C#N)cc2c1	·	·	-0.8	12.7	-328.6	56.8	·
Cc1nn(C)c(C)c1CN(Cc1nc(CCC(C)C)no1)C(C)C	i	0.99	·	-1.6	·	·	108.4

Arranged by value in PKD1 inh (smallest number first): 3 from the list above.
molecule	HSV replic up primary fold	GALR2 agonist	PKD1 inh	RGS16-Gao
CNC(=O)CSc1nc2[nH]ncc2c(=O)[nH]1	0.96	·	-4.2	122.8
CS(=O)(=O)NN1C(=O)c2ccccc2NC1c1ccccc1 (centres undefined)	0.99	·	-3.0	99.6
CC(=O)c1cc(CC=C(C)C)c(O)c(CC=C(C)C)c1O	·	-1.5	-1.1	92.9

(cont.)
SMILES	HSV replic up	HSV replic up primary fold	GALR2 agonist	PKD1 inh	Insulin prom inh	Insulin prom inh cell count	RGS16-Gao
Cc1ccc2cc(C#N)c(N3CCCN(S(=O)(=O)c4ccccc4)CC3)nc2c1	i	0.9	0.6	14.9	·	·	104.5
O=c1c2ccc([N+](=O)[O-])cc2ncn1CCOc1ccccc1	i	0.9	·	-1.2	·	·	98.4
Cn1nc(C(=O)N2CCCc3ccccc32)c2ccccc2c1=O	i	0.97	·	0.9	26.7	102.6	96.8
N#C/C(=C\c1ccc(O)cc1)C(=O)N1CCCC1	i	0.84	·	·	·	·	114.6
COc1ccccc1C1CC(c2ccccc2)=NN1C(=S)Nc1ccccc1 (centres undefined)	i	0.97	·	0.2	·	·	103.0
CCCCCCCCS(=O)CCC(=O)O (centres undefined)	i	0.97	·	-2.1	·	·	103.5
S=c1[nH]nc(-c2cc(-c3ccccc3)n[nH]2)n1/N=C/C=C/c1ccccc1	i	1.14	·	·	·	·	93.9
CCn1cc([N+](=O)[O-])c(C(=O)N2N=C(c3ccc(OC)cc3OC)CC2c2ccccc2O)n1 (centres undefined)	i	0.91	-0.3	1.3	6.7	80.2	66.1
O=C1Nc2cc(Cl)c(Cl)cc2N(O)N1c1ccccc1	i	1	-0.6	5.7	·	·	100.7
CCOC(=O)c1c(C)nc2sc(C(N)=O)c(N)c2c1-c1ccc(OC)cc1	i	1.03	0.3	-1.6	-6.7	125.4	100.2
O=C(c1ccncc1)N1CCN(c2ccc3ccccc3n2)CC1	i	0.96	·	-5.7	·	·	102.9
CCCCCCCC1=CC2=CC(=O)C(C)(OC(C)=O)C(=O)C2=CN1CCc1ccccc1 (centres undefined)	·	·	-0.8	-2.3	-22.7	94.3	95.3
C=CCNC(=O)CN(c1ccc(OC)cc1OC)S(C)(=O)=O	i	0.92	-0.7	-2.4	22.2	125.6	105.7
COc1cc2cc(C(=O)N3CCN(Cc4ccc5c(c4)OCO5)CC3)c(=O)oc2cc1OC	i	1.06	·	·	·	·	100.7
CC(C)NC(=O)CSc1nc2ccccc2n1CC(=O)N1CCc2ccccc21	i	0.76	-1.0	6.6	36.4	80.3	100.9
COC(=O)[C@@]1(Cc2ccc(OC)cc2)[C@H]2c3cc(C(=O)N4CCCC4)n(CCN4CCNC4=O)c3C[C@H]2CN1C(=O)c1ccccc1	i	0.79	-0.5	-1.8	-30.0	91.3	96.3
COCCn1c(N)c(C(=O)NS(=O)(=O)c2ccc(C)cc2)c(=O)[nH]c1=O	i	1.17	·	-2.5	41.2	111.0	98.3
CC1CCN(c2oc(-c3ccccc3Cl)nc2C#N)CC1	i	0.95	0.0	4.3	-22.2	121.7	72.8
COc1ccc(N=N/C(=C\O)C(=O)c2ccco2)cc1	i	0.87	·	-2.9	·	·	100.0
CN(C)c1ccc(C(=O)OCC(=O)Nc2ccc(N3CCOCC3)cc2)cc1	i	0.94	·	·	·	·	92.5
CN(/N=C/C=C/c1ccccc1)C1=NS(=O)(=O)c2ccccc21	i	1.01	-0.5	-9.9	·	·	110.0
COc1ccc(CCNC(=O)COc2ccc(-c3ccccc3)cc2)cc1OC	i	0.99	-0.6	10.6	·	·	103.4
CCC(CC)c1nn2c(N)c(/C=C3\C=Nc4ccccc43)c(=O)nc2s1	i	1.02	·	·	·	·	101.4
Cn1nnnc1SCC(=O)N1CCOCC1	i	0.95	-1.8	-9.2	53.3	175.0	116.3
CCOc1cc(/C=C\[N+](=O)[O-])ccc1OCC(=O)Nc1ccccc1C	i	0.78	2.9	-13.3	·	·	89.6
O=C(CN1CC(c2ccccc2)CC1=O)OCc1cccc(Br)c1 (centres undefined)	i	1.16	-2.1	-2.8	23.1	109.4	100.7
CNC(=O)c1cc(NC(=O)CCn2nc(-c3ccccc3)c3ccccc3c2=O)ccc1OC	i	0.92	·	·	·	·	95.0
NNC(=O)c1sccc1OCc1cccc(C(F)(F)F)c1	i	1.03	·	4.6	60.0	136.5	102.9
CCOc1ccc(C(C(=O)Nc2ccc(F)cc2)N(C(=O)Cn2nnc3ccccc32)C2CC2)cc1 (centres undefined)	i	0.83	0.5	-4.0	-37.5	114.5	107.5
O=[n+]1cc(-c2cccc3ccccc23)n([O-])c2c1CCC2	i	0.91	-0.7	-1.7	-41.7	115.0	103.1
Cn1nc(C(=O)NC2CCCc3ccccc32)ccc1=O (centres undefined)	i	1.1	·	-4.7	·	·	102.5
CC1(c2cc([N+](=O)[O-])cc([N+](=O)[O-])c2)CC(C)(C)N(C(=O)c2ccccc2)c2ccccc21 (centres undefined)	i	1.03	-2.6	0.1	·	·	97.3
CC(=O)c1nn(-c2cccc(Br)c2)cc1C(=O)c1ccc(C)cc1	i	0.96	-1.3	-4.9	-27.0	58.7	94.3
CC1=NN(C(=O)Cc2ccc(C)cc2)C(O)(c2cccnc2)C1 (centres undefined)	i	1.1	0.5	-3.5	5.4	170.2	98.3
CCCCC(=O)NS(=O)(=O)c1ccc(N=NN(CC)CC)cc1	i	1.01	·	-1.3	·	·	98.5
CCC(=O)Nc1ccc2c(c1)C(=O)N(C1CCCCC1)C2=O	i	0.94	-0.9	-4.9	-22.7	76.8	110.3
CC(C)OC(=O)C1C(=O)CC(C)(O)C(C(=O)OC(C)C)C1c1ccccc1 (centres undefined)	i	1.06	·	-5.2	18.2	114.8	-3.2*
CCc1cc(=O)oc2cc(C)c(CN3CCCCC3)c(O)c12	i	0.94	-1.7	-12.7	·	·	89.1
COc1ccc(-c2ccc([C@H]3[C@H]4C=CC[C@@H](C)[C@@H]4C(=O)N3Cc3ccccc3)c(F)c2)cc1C	i	0.93	·	·	·	·	101.5
CCOc1ccc2nc(SCC(=O)NC3CCS(=O)(=O)C3)[nH]c2c1 (centres undefined)	i	0.88	-0.3	1.1	·	·	102.3
CN(C)c1ccc(C2C3C(=O)N(c4ccc(C(=O)O)cc4)C(=O)C3ON2c2ccccc2)cc1 (centres undefined)	i	0.95	-5.4	-5.8	·	·	97.2
O=c1c2c(n3cnnc3n1-c1ccccc1)-c1ccccc1CC21CCCC1	i	1.07	0.8	-2.0	-35.1	106.2	107.3
c1ccc(NCn2cncn2)nc1	i	1	0.1	-1.8	32.3	76.8	103.3
c1ccc2c(c1)CCCN2Cc1nnc2n1CCCCC2	i	0.92	-3.1	-0.1	·	·	106.2
O=C(Nc1ccc(Nc2ccccc2)cc1)C(Cl)Cl	i	0.55	-0.5	-5.2	·	·	104.2
COc1ccc(C(=O)c2ccc(OC)cc2O)c(O)c1	i	0.81	0.1	-2.5	·	·	97.1
CCC(=O)Nc1nc2ccc(S(C)(=O)=O)cc2s1	i	1.04	0.2	-3.9	43.8	166.4	53.9
Cn1c(Sc2ccc(C(F)(F)F)cc2[N+](=O)[O-])nnc1-c1ccccc1	i	0.77	-2.3	-3.4	-17.1	114.3	97.6
Nc1ccnc(Oc2ccc(F)cc2)c1	·	·	-2.4	-5.7	-50.0	63.4	94.2
N#Cc1ccccc1NC1=CC(=O)CCC1	i	0.87	0.1	-3.0	0.0	104.3	97.7
(listing goes on)
SMILES	HSV replic up	HSV replic up primary fold	GALR2 agonist	PKD1 inh	Insulin prom inh	Insulin prom inh cell count	RGS16-Gao
COc1ccc(N2C(=O)C3C4C=CC(c5ccccc5)(C3C2=O)C2C(=O)N(c3ccc(OC)cc3)C(=O)C42)cc1 (centres undefined)	i	0.94	·	5.5	-5.3	114.1	92.6
CCOC(=O)CSc1nc2c([nH]c3ccccc32)c(=O)n1C	i	0.99	0.2	6.6	43.5	100.6	102.0
NC(=NC1CCCCC1)c1ccc([N+](=O)[O-])cc1	i	0.977	-3.4	1.4	-25.8	100.0	105.6
NCCc1ccc(O)c(O)c1	i	0.81	-1.7	3.1	43.5	159.6	·
C/C(CC(=O)Nc1ccc2c(c1)OCCO2)=N\NC(=O)c1ccccn1	i	0.96	·	10.2	25.9	42.8	86.6
Cc1cccc(N2CCN(Cc3cc(=O)n4ccsc4n3)CC2)c1C	i	1	-2.7	-10.6	-32.4	149.3	96.0
O=C(Nc1ccccc1C(=O)N/N=C/c1ccco1)c1ccc(Cl)cc1	i	1.03	-0.4	15.6	0.0	88.3	126.5
COc1ccc(CSc2nc(C)cc(C)c2S(C)(=O)=O)cc1	i	1.05	·	2.2	36.4	87.2	105.5
Cc1onc(-c2ccccc2)c1CNS(=O)(=O)c1ccccc1[N+](=O)[O-]	i	1.22	·	·	·	·	98.6
O=[N+]([O-])c1cc(S(=O)(=O)Nc2cccc(Cl)c2)ccc1N/N=C/c1ccc(N2CCOCC2)cc1	i	0.76	·	·	·	·	98.6
CCOC(=O)C1=C(COc2ccc(C)cc2)NC(=O)NC1c1cc(C)ccc1C (centres undefined)	i	0.73	0.6	0.5	·	·	104.1
O=C1C(Cc2ccc(F)cc2)SC(=Nc2ccccc2)N1c1ccccc1 (centres undefined)	·	·	-1.1	-3.1	·	·	106.1
CN1C(=O)C2ON(c3ccccc3)C(c3cccs3)C2C1=O (centres undefined)	i	0.84	-3.0	-11.3	37.5	181.8	105.1
